Screening data from PubChem BioAssay.
FGF22 binding – binders of recombinant human FGF22 by thermal shift. Q9HCT0. calls only at 9.99 µM. AID 651658. SYPRO orange fluorescence; percent of sucrose octasulfate shift, DMSO zero. 340,000 tested, 1.5% active;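 active = melting point raised past a set limit in the mean and every replicate; three in four hits are not shown here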
Target sequence (Q9HCT0 whole entry, looked up): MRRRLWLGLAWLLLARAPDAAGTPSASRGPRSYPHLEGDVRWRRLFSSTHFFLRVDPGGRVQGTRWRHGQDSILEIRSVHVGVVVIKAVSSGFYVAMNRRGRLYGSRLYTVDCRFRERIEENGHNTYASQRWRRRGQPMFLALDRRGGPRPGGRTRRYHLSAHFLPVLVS
E coli growth – blocks Escherichia coli growth; OD600, 23 h; hits give low values; OD600 absorbance (test concentration not listed); 330,000 tested, 0.21% active;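 active = OD600 absorbance below the run mean of sample wells minus 3.6 SD, in any replicate, cut at about 0.56 in these data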;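 also: stock transfer was 300 nL into about 60 µL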
UCH37 inh – inhibitors of human deubiquitinating enzyme UCH37 | purified proteasome/UCH37, Ub-AMC cleavage fluorescence | inhibition, % (concentration not given with the values) | 330,000 tested, 0.33% active;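 active = mean of two replicates above 20%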;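 also: 0% = compound-free wells with enzyme and 100% = wells lacking proteasome; stock transfer was 100 nL into about 20 µL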
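Material: human UCH37 enzyme supplied as purified proteasome complex / Amount: 0.15 nM proteasome as dispensed / Buffer or medium: pH 7.4 Tris-HCl (50 mM) with ovalbumin, ATP-MgCl2, DTT / Times: preincubation 30 min, reaction 25 min, room temperature / Technique: AMC fluorescence from Ub-AMC cleavage, excitation 355 nm, emission 460 nm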
B2AR ag – agonists of human beta-2 adrenergic receptor inducing internalization | P07550 | 340,000 tested, 0.43% active | response, % (concentration not given with the values) | Am2.2-beta2AR cells, FAP receptor internalization, flow cytometry; reference of the scale not given here | AID 504454;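 active = response above a set limit, near 3 SD of response in nonfluorescent compounds, cut at about 42% in these data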;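 also: stock transfer was 100 nL into about 11 µL; a reference agonist was the positive control; negative values mostly stem from fluorescent compounds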
Target sequence (P07550 whole entry, looked up): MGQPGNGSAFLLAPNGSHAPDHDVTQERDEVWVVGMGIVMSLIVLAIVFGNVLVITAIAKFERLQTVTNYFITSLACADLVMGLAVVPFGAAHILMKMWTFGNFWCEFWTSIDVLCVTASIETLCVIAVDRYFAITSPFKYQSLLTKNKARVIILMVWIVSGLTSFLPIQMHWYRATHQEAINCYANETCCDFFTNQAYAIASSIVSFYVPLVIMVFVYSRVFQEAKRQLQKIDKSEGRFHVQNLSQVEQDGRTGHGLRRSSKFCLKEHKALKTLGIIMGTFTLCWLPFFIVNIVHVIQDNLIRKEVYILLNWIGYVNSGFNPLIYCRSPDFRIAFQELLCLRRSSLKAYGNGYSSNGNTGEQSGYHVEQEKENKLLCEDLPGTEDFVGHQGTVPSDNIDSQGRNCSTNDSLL
rRNA inh HTS – selective bacterial rRNA inhibition in E. coli. GFP signal change (wild-type ribosome), % (no concentration beside the values). E. coli WT GFP vs humanized-ribosome RFP mutants, fluorescence, 24 h; hits give low values; DMSO median 0, no signal -100. 350,000 tested, 1.6% active;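 active = significant combined selectivity score with lowered wild-type GFP, culture density cut under 30%, mutant RFP and density less affected; inactive = any of these conditions unmet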; also: one replicate is shown; some compounds called inactive have numbers as strong as hits
ALR inh – human ALR oxidase inhibition via reduced H2O2; P55789; purified ALR, DTT oxidation, H2O2 HRP-luminol luminescence; inhibition, % (test concentration not listed); 290,000 tested, 3.8% active;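 active = mean and each replicate at 75% or more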;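 also: stock transfer was 7.5 nL into about 7.5 µL; 0% = neutral wells and 100% = wells with inactivated enzyme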
HNF4A DNA FP – change in binding of human HNF4 alpha to DNA; P41235; AID 1224865; 360,000 tested, 0.3% active; HNF4a-FITC DNA binding, fluorescence polarization, 1 h; activity change, % at 10 µM; in the data active = activity change above about 30%, passing the limit was not always enough;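 also: controls were the assay level and a saturating level of protein; the project sought stronger binding though the title names inhibitors; some compounds called inactive have numbers as strong as hits; positive values seem to mean higher polarization but the record does not say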
Target sequence (P41235 whole entry, looked up): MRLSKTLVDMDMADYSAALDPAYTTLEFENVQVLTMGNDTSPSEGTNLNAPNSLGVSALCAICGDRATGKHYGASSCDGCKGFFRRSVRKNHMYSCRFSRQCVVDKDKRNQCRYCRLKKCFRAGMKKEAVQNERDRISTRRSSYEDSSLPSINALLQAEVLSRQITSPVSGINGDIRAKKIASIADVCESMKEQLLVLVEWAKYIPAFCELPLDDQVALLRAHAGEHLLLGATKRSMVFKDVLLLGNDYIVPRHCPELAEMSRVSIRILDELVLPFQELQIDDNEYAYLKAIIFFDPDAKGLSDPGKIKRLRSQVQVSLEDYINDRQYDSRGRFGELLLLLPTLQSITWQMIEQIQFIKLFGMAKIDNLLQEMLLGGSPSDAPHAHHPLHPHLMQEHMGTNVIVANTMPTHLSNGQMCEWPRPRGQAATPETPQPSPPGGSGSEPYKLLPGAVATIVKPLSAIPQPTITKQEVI
rRNA inh HTS OD600 – recorded beside rRNA inh HTS, whose call it bears; OD600 change, %; measured here: OD600 growth;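 optical density of the mix in the first replicate; 0 = DMSO median and -100 = no signal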
rRNA inh HTS RFP – further read-out of rRNA inh HTS, marked with its call; RFP signal change, %; measured here: RFP humanized mutant strains;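 first replicate; 0 = DMSO median and -100 = no signal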
Numbers without * were called inactive.

`Cc1cccc(Nc2ncnc3nc[nH]c23)c1` gave FGF22 binding inactive, E coli growth 0.73, UCH37 inh 3.2, B2AR ag 6.3, rRNA inh HTS 4.3, ALR inh 94.7*, HNF4A DNA FP -1.0, rRNA inh HTS OD600 5.8 and rRNA inh HTS RFP 0.8.
For COc1cccc(/C=N\Nc2nncc(-c3ccccc3)n2)c1 the results were B2AR ag -8.0, ALR inh -11.0 and HNF4A DNA FP 2.5.
`CN(C)CCNC(=O)C(=O)c1c(-c2ccccc2)cc2ccccn12` gave FGF22 binding inactive, E coli growth 0.672, UCH37 inh 5.5, B2AR ag -1.7, rRNA inh HTS 20.5, ALR inh -6.6, HNF4A DNA FP 0.1, rRNA inh HTS OD600 17.9 and rRNA inh HTS RFP 1.1.
For Cc1ccc2nc3c(cc2c1)c(NC(=O)c1ccccn1)nn3CC(C)C the results were E coli growth 0.697, UCH37 inh -115.6, B2AR ag -6.6, ALR inh -4.9 and HNF4A DNA FP 2.3.
O=C(COc1cccc(C(F)(F)F)c1)NCCCN1CCCC1=O was read as E coli growth 0.645, UCH37 inh 2.6, B2AR ag 10.3 and HNF4A DNA FP -1.1.
`COc1ccccc1Nc1nc(C)c(C(=O)Nc2ccccc2)s1` gave E coli growth 0.663, UCH37 inh -17.0, B2AR ag 5.7, rRNA inh HTS -32.2*, ALR inh 0.8, HNF4A DNA FP -1.1, rRNA inh HTS OD600 -20.9* and rRNA inh HTS RFP -1.2*.
For O=C(Nc1ccccc1)/C(=C/c1ccc([N+](=O)[O-])cc1)NC(=O)c1ccco1 the results were FGF22 binding inactive, E coli growth 0.669, UCH37 inh 11.2, B2AR ag 3.5, rRNA inh HTS 4.8, ALR inh -25.1, HNF4A DNA FP 1.5, rRNA inh HTS OD600 1.6 and rRNA inh HTS RFP -1.1.
For CCOC(=O)C(CC)n1cnc2sc3c(c2c1=O)CCC3 (stereo unspecified) the results were E coli growth 0.717, UCH37 inh 0.0, B2AR ag 9.2, ALR inh -8.1 and HNF4A DNA FP 0.1.
For Cc1cc(C(=O)COc2cccc([N+](=O)[O-])c2)c(C)n1C1CC1 the results were FGF22 binding inactive, E coli growth 0.669, UCH37 inh 2.8, B2AR ag -1.2, ALR inh -1.6 and HNF4A DNA FP 1.8.
`CC(CCc1ccccc1)NC(=O)Cc1ccc([N+](=O)[O-])cc1` (stereo unspecified) gave FGF22 binding inactive, E coli growth 0.71, UCH37 inh 3.7, B2AR ag 1.0, rRNA inh HTS 5.2, ALR inh -3.1, HNF4A DNA FP 1.8, rRNA inh HTS OD600 -4.0 and rRNA inh HTS RFP -0.7.
Screening c1ccc(-c2nc(-n3nc4ccccc4n3)nc3ccccc23)cc1 returned E coli growth 0.753, UCH37 inh -2.6, B2AR ag 10.7, ALR inh -7.1 and HNF4A DNA FP 2.1.
Cc1ccc(NC(=O)c2ccc(CNS(=O)(=O)c3cccc(C(F)(F)F)c3)cc2)cc1 was read as E coli growth 0.741, UCH37 inh 2.2, B2AR ag 1.4 and HNF4A DNA FP 0.9.
Screening CC(=O)NCCNC(=O)C1(C)Cc2c(-c3cccc(C(N)=O)c3)ccnc2O1 (stereo unspecified) returned FGF22 binding inactive, rRNA inh HTS 7.8, HNF4A DNA FP 0.8, rRNA inh HTS OD600 5.2 and rRNA inh HTS RFP -3.2.
CCCCN(CCCC)C(=O)c1sc2nc(N3CCOCC3)c3c(c2c1N)CCCC3 was read as FGF22 binding inactive, E coli growth 0.678, UCH37 inh -430.8, B2AR ag 6.1, rRNA inh HTS 0.9, HNF4A DNA FP -1.5, rRNA inh HTS OD600 3.8 and rRNA inh HTS RFP 4.8.
For Cc1nc(C(=O)N2CCOCC2)sc1C1(C)CC(c2ccccc2)=NO1 (stereo unspecified) the results were E coli growth 0.648, UCH37 inh -0.5, B2AR ag -0.2, rRNA inh HTS 6.4, HNF4A DNA FP -8.2, rRNA inh HTS OD600 0.0 and rRNA inh HTS RFP -0.4.
`Cc1noc(C)c1C(=O)OCC(=O)NCc1ccc(Cl)cc1` gave FGF22 binding inactive, E coli growth 0.609, UCH37 inh 6.4, B2AR ag 12.7, ALR inh -7.5 and HNF4A DNA FP 0.9.
For COc1ccc(CCN2C(=O)C(O)=C(C(=O)c3ccco3)C2c2cccs2)cc1OC (stereo unspecified) the results were E coli growth 0.745, UCH37 inh 7.8, B2AR ag 4.3, ALR inh 7.1 and HNF4A DNA FP -0.1.
For O=C(NCCCN1CCCC1=O)c1cncc(Br)c1 the results were E coli growth 0.616, UCH37 inh 1.7, B2AR ag 9.5, ALR inh -5.5 and HNF4A DNA FP -3.5.
`COC(=O)c1sc(NC(=O)/C=C/c2ccc(C)o2)nc1C` gave FGF22 binding inactive, E coli growth 0.712, UCH37 inh -41.4, B2AR ag -10.2, ALR inh 49.3 and HNF4A DNA FP -1.3.
Screening CCCC(=O)NC(=S)Nc1ccc(NC(=O)C(C)C)c(OC)c1 returned FGF22 binding inactive, E coli growth 0.661, UCH37 inh 1.4, B2AR ag -16.4, rRNA inh HTS 9.0, ALR inh 1.2, HNF4A DNA FP -1.1, rRNA inh HTS OD600 6.4 and rRNA inh HTS RFP -1.5.
For CCc1nc2ccc(C(=O)N(C)CCN(C)C)cn2c1N(CC)C(=O)NCCc1ccccc1 the results were FGF22 binding inactive, rRNA inh HTS 15.6, HNF4A DNA FP -3.9, rRNA inh HTS OD600 24.1 and rRNA inh HTS RFP 2.1.
Screening COc1cccc(C(c2nnnn2CS(=O)(=O)c2ccc(C)cc2)N2CCN(C)CC2)c1OC (stereo unspecified) returned E coli growth 0.742, UCH37 inh 0.6, B2AR ag -2.0, ALR inh -14.8 and HNF4A DNA FP -2.1.
`COc1cc(C(=O)NNC(=S)NCc2ccco2)cc(OC)c1OC` gave FGF22 binding inactive, E coli growth 0.67, UCH37 inh -0.3, B2AR ag 8.8, rRNA inh HTS -17.0, ALR inh -7.7, HNF4A DNA FP -1.2, rRNA inh HTS OD600 -21.2 and rRNA inh HTS RFP -3.2.
`O=C(OCC(=O)c1ccc(Cl)s1)c1ccc(CO)cc1` gave FGF22 binding inactive, E coli growth 0.676, UCH37 inh 1.1, B2AR ag -1.1, rRNA inh HTS 0.3, ALR inh 2.5, HNF4A DNA FP 5.2, rRNA inh HTS OD600 1.8 and rRNA inh HTS RFP 0.6.
Screening O=C(Cc1c[nH]c2ccccc12)N/N=C/c1ccccc1O returned FGF22 binding inactive, B2AR ag 11.0, rRNA inh HTS -13.4, ALR inh 19.3, HNF4A DNA FP 1.9, rRNA inh HTS OD600 -3.5 and rRNA inh HTS RFP -4.0.
`CCN1C[C@@H]2[C@@H]3C(=O)N(C)C(=O)[C@@H]3[C@](C)(C1=O)N2C(=O)c1ccc(Br)cc1` gave FGF22 binding inactive, UCH37 inh 3.7, B2AR ag -0.7, rRNA inh HTS 7.0, HNF4A DNA FP 1.3, rRNA inh HTS OD600 11.4 and rRNA inh HTS RFP -3.4.
CCN(CC)CCNC(=O)c1ccc(NC(=O)Cc2cccc3ccccc23)cc1 was read as FGF22 binding inactive, E coli growth 0.712, UCH37 inh 3.4, B2AR ag 14.3, rRNA inh HTS 3.6, ALR inh -10.0, HNF4A DNA FP 2.7, rRNA inh HTS OD600 0.5 and rRNA inh HTS RFP -0.4.
CCn1c(=O)n(CC)c2cc(NC(=O)C(C)c3ccccc3)c(Br)cc21 (stereo unspecified) was read as FGF22 binding inactive, E coli growth 0.676, UCH37 inh 0.0, B2AR ag 1.2, rRNA inh HTS -20.2, ALR inh -8.9, HNF4A DNA FP 0.0, rRNA inh HTS OD600 -24.1 and rRNA inh HTS RFP -3.8.
`CN(CC(=O)Nc1ccc(Cl)c(C(F)(F)F)c1)C(=O)c1ccc(N2CCOCC2)c([N+](=O)[O-])c1` gave FGF22 binding inactive, E coli growth 0.674, UCH37 inh 2.4, B2AR ag 9.4, rRNA inh HTS -7.4, ALR inh -1.9, HNF4A DNA FP -2.8, rRNA inh HTS OD600 -49.6 and rRNA inh HTS RFP -0.4.
`Cc1ccc(/C=C2\SC(=S)N(CCC(=O)NNC(=O)c3cccnc3)C2=O)cc1` gave E coli growth 0.731, UCH37 inh 9.3, B2AR ag -3.1, ALR inh -4.1 and HNF4A DNA FP -2.2.
For CC12CCCCC1c1ccccc1C(=NCC(=O)O)N2 (stereo unspecified) the results were E coli growth 0.681, UCH37 inh 1.8, B2AR ag 7.2, ALR inh -17.5 and HNF4A DNA FP -1.3.
`Cc1cc(NC(=O)CN2C(=O)NC(c3ccccc3)(c3ccc(C)c(C)c3)C2=O)no1` (stereo unspecified) gave FGF22 binding inactive, B2AR ag 14.2, rRNA inh HTS -2.5, ALR inh 3.5, HNF4A DNA FP 0.6, rRNA inh HTS OD600 -36.2 and rRNA inh HTS RFP 6.1.
For Cc1cccc(NC(=O)CSc2nnc(CNC(=O)c3cccs3)o2)c1C the results were FGF22 binding inactive, E coli growth 0.723, UCH37 inh -0.9, B2AR ag 4.1, rRNA inh HTS 13.9, ALR inh -21.2, HNF4A DNA FP -3.3, rRNA inh HTS OD600 12.4 and rRNA inh HTS RFP 1.8.
`CCC1CCCCN1CCCNC(=O)CS(=O)(=O)Cc1nc(-c2cccc(OC)c2)oc1C` (stereo unspecified) gave FGF22 binding inactive, E coli growth 0.694, UCH37 inh -2.3, B2AR ag 2.4, rRNA inh HTS 0.2, ALR inh 98.4*, HNF4A DNA FP -0.4, rRNA inh HTS OD600 3.1 and rRNA inh HTS RFP 9.7.
Screening Cn1nc(C(=O)NC2=NCCS2)ccc1=O returned E coli growth 0.753, UCH37 inh -1.2, B2AR ag 3.0 and HNF4A DNA FP -2.4.
For COc1cc(C)c(C(C)C)cc1S(=O)(=O)NCCCn1ccnc1 the results were E coli growth 0.699, UCH37 inh 1.7, B2AR ag -4.5, ALR inh 7.7 and HNF4A DNA FP -0.2.
Screening CCCCc1nc2ccccc2c(N)c1CCC (tested in a mixture with another compound) returned FGF22 binding inactive, E coli growth 0.651, UCH37 inh 6.9, B2AR ag -9.1, rRNA inh HTS -6.0, ALR inh -5.2, HNF4A DNA FP -1.5, rRNA inh HTS OD600 -32.0 and rRNA inh HTS RFP 1.0.
`COc1cccc(C(=O)Nc2c[nH]c(=O)[nH]c2=O)c1` gave FGF22 binding inactive, E coli growth 0.706, UCH37 inh 1.7, B2AR ag 7.7, rRNA inh HTS 0.7, ALR inh -5.3, HNF4A DNA FP 0.0, rRNA inh HTS OD600 -1.7 and rRNA inh HTS RFP -2.5.
For Cc1cc(NC(=O)CSc2ncnc3sc(C)c(C)c23)no1 the results were FGF22 binding inactive, E coli growth 0.735, UCH37 inh -1.9, B2AR ag -4.5, rRNA inh HTS 15.8, ALR inh -64.0, HNF4A DNA FP -3.0, rRNA inh HTS OD600 3.4 and rRNA inh HTS RFP 0.9.
O=C(CSc1ccsc1[N+](=O)[O-])N1CCCCC1 was read as FGF22 binding inactive, E coli growth 0.656, UCH37 inh 7.7, B2AR ag 0.1, rRNA inh HTS -2.7, ALR inh -3.0, HNF4A DNA FP 2.8, rRNA inh HTS OD600 -10.6 and rRNA inh HTS RFP 1.3.

Copied from above (2 entries):
For CCc1nc2ccc(C(=O)N(C)CCN(C)C)cn2c1N(CC)C(=O)NCCc1ccccc1 the results were FGF22 binding inactive, rRNA inh HTS 15.6, HNF4A DNA FP -3.9, rRNA inh HTS OD600 24.1 and rRNA inh HTS RFP 2.1.
Screening COc1cccc(C(c2nnnn2CS(=O)(=O)c2ccc(C)cc2)N2CCN(C)CC2)c1OC (stereo unspecified) returned E coli growth 0.742, UCH37 inh 0.6, B2AR ag -2.0, ALR inh -14.8 and HNF4A DNA FP -2.1.

These rows are one share of the data; rates above refer to the full screens.
